H5N1 antiviral = antiviral screen in MDCK cells, H5N1 avian flu | cytopathic effect, luminescence, 72 h; active compounds read high; no value below 0 was filed and about half of the inactive calls have no number; reference of the scale not given here | inhibition, % at 50 µM | 0.07% of 96,000 active; in the data active = inhibition above about 25%
* hit, by the source's call; i = inactive. This is a subset; count on the stated rates, not on these rows.

Structure | H5N1 antiviral
COc1ccc(C2SCC(=O)N2CC23CC4CC(CC(C4)C2)C3)cc1 (configuration not stated) | 3.4
Cn1ncc2c1ncn1nc(COc3ccc4ccccc4c3)nc21 | 0.2
COc1ccc(C2C3=C(CC(C)(C)CC3=O)Oc3ncn(CCO)c(=N)c32)cc1OC (configuration not stated) | i
O=C(Nc1ccccc1)c1ccc(NCC2CCCO2)c(S(=O)(=O)N2CCOCC2)c1 (configuration not stated) | 0.1
CNC(=O)c1nc(C)n(-c2cc(Cl)ccc2Cl)n1 | i
CCOc1ccc(C(=O)N2CCN(c3ccccc3)CC2)cc1OCC | 1.8
Cc1ccc(C(=O)N2CCN(c3cc(=O)[nH]nc3-c3ccccc3)CC2)cc1 | 2.7
O=C(CCCC(=O)OCC(=O)NC1CCCC1)Nc1ccccn1 | 0.1
COc1ccc(/C(O)=C2\C(=O)C(=O)N(CCN(C)C)C2c2cccc(OC)c2OC)cc1Cl (configuration not stated) | i
O=C(NCCCCCCNC(=O)NCc1ccco1)NCc1ccco1 | 0.1
CCCCN(C)C(=O)c1oc2ccc(S(=O)(=O)N3CCCCCC3)cc2c1C | 3.6
CCc1nnc(NC(=O)C2Cc3ccccc3CN2S(=O)(=O)c2ccc(C)cc2)s1 (configuration not stated) | i
CC/C(O)=C(\C#N)c1nnc2n1CCCCC2 | i
COCCn1nnnc1CN1CCN(c2cccc(C(F)(F)F)c2)CC1 | i
COc1ccc(N=C2S/C(=C\c3ccco3)C(=O)N2CC(C)C)cc1 | 0.7
O=C(Nc1ccc2c(c1)OCCO2)c1cc2sccc2n1Cc1ccc(F)cc1 | i
CCCN(CC1CC1)C(=O)CSc1nnc(-c2cc(-c3cccs3)nc3ccccc23)o1 | 0.1
COC(=O)c1ccccc1NC(=O)C1CCC(=O)N1S(=O)(=O)c1ccc(C)cc1 (configuration not stated) | i
O=c1[nH]c(CN2CC=C(c3ccccc3)CC2)nc2cc(C(F)(F)F)ccc12 | 0.0
C=CCn1c(-c2csc3ccccc23)n[nH]c1=S | 0.4
CCOC(=O)c1cnc2sc3c(n2c1=O)CCCC3 | 0.3
CC1(C)Cc2ccccc2C(N/N=C/c2cccc(F)c2)=N1 | 3.4
O=C(CCc1ccccc1)Nc1nncs1 | i
COc1ccc(C(=O)CSc2nnc(C(CO)NC(=O)c3ccc(OC)cc3)n2C)cc1 (configuration not stated) | 0.6
CCCn1c(NCc2ccco2)nc2ccccc21 | i
O=C1c2ccccc2-c2nc3ccccc3nc21 | 2.5
O=[N+]([O-])c1ccc2c(c1)C(N1CCOCC1)/C(=C/COc1ccc(F)cc1)O2 (configuration not stated) | 2.8
CCOCc1cc(C2NC(=O)NC(C)=C2C(=O)OCC)ccc1OC (configuration not stated) | 0.8
O=C(CCc1ccccc1)Nc1nc2n(n1)C(c1ccc(Cl)cc1)CC(=O)N2 (configuration not stated) | 0.2
COc1cc(C(=O)NCC(c2cccnc2)N2CCN(c3ccccc3)CC2)cc(OC)c1OC (configuration not stated) | 0.4
O=c1[nH]c(/C(=N\O)c2ccccc2)no1 | i
COc1ccc(S(=O)(=O)Nc2ccc3c(c2)OCO3)cc1 | i
COc1ccc(-c2nn(C)c(=O)c3ccccc23)cc1NC(=O)Cn1nc(-c2ccccc2)c2ccccc2c1=O | 0.7
Cn1ncc([N+](=O)[O-])c1C(=O)Nc1ccc(-c2nc3ccccc3[nH]2)cc1 | 0.9
CN(C)S(=O)(=O)Oc1cccc(C(=O)Nc2ccccc2Cl)c1 | 0.3
CCc1cccc(OCCCCN(CC)CC)c1 | i
Cc1cccc2cc(C#N)c(NCCNS(=O)(=O)c3ccc4c(c3)OCCO4)nc12 | 0.8
CCCCNC(=O)Nc1cnn(CC)c1C(N)=O | 1.5
Cc1cnc(C(=O)OCC(=O)Nc2ccc(Cl)cc2)cn1 | i
c1cc2ccc3ccc(CN4CCOCC4)c4ccc(c1)c2c34 | 0.1
CN1C(=O)C(C2c3ccccc3C(=O)N2Cc2ccccc2)C(=O)N(C)C1=O (configuration not stated) | i
Cn1c(=O)oc2cc(S(=O)(=O)Nc3cccc(C(=O)O)c3)ccc21 | 0.1
Cn1c(-c2ccc(C(C)(C)C)cc2)n[nH]c1=S | i
CC(C)c1ccc(N2CCN(C(=O)c3ccccc3NC(=O)/C=C(\C(=O)O)c3ccccc3)CC2)cc1 | i
Cc1ccc(C)c(N(C(=O)Cn2nnc(-c3cccs3)n2)C(C(=O)NC2CC2)c2ccc(C)o2)c1 (configuration not stated) | 1.5
CC1=C(C(=O)OC2CCCCC2)C(c2ccco2)n2ncnc2N1 (configuration not stated) | 4.0
CCOC(=O)CSc1ccc(-c2nc3cc(C)c(C)cc3[nH]2)cn1 | i
C=CCNc1nc(N)c(C(=C(C#N)C#N)c2ccccc2)s1 | 2.4
CN(C)c1nc(Oc2ccc(/C=N/O)cc2)nc(N(C)C)n1 | i
Cc1ccc(NC(=S)Nc2nc(CC(=O)Nc3ccccc3)cs2)cc1 | i
N#Cc1nc(-c2ccccc2Cl)oc1N1CCOCC1 | 0.9
N/C(=N\c1nc2c(c(=O)[nH]1)CCCC2)Nc1ccccc1Sc1ccccc1 | i
COc1ccc(/C=N/c2nc3ccccc3n2C)cc1OC | i
O=C(N/N=C/c1ccco1)c1cnccn1 | 4.5
NS(=O)(=O)c1cccnc1Nc1ccc(Cl)c(Cl)c1 | 1.1
Cc1cc(=O)oc2cc(OCC(=O)N3CCCC(C)C3)ccc12 (configuration not stated) | 2.5
C[N+]1(CC(=O)OCCCc2ccccc2)CCOCC1 | 1.6
Cc1cnc(C(=O)OCC(=O)N2CCc3ccccc3C2)cn1 | i
Cc1ccc2c(c1)CC1(CN2C)C(=O)NC(=O)N(c2ccc(C)c(C)c2)C1=O (configuration not stated) | i
Cn1c(=O)c2c(SCC(N)=O)nc(CC(C)(C)C)nc2n(C)c1=O | 1.8

Going on with the list:
Structure | H5N1 antiviral
COc1ccc(-n2c(=O)c3ccccc3n(CC(=O)Nc3cc(C)on3)c2=O)cc1OC | i
COc1ccc(C(=O)N2CCC(N3CCN(c4ccccc4)CC3)CC2)cc1OC | i
Nc1cc(=O)[nH]c(=S)n1-c1ccccc1 | i
CCOC(=O)CN1NC2(CCC(C)CC2)NC1=S (configuration not stated) | 0.3
CCCC(=O)N1CCc2cc(-c3nc(N)sc3C)ccc21 | i
CCC(C(=O)O)n1c(C(F)(F)F)nc2ccccc21 (configuration not stated) | 0.7
COCCSc1nnc(NC(=O)Cc2cccs2)s1 | i
CCOC(=O)C1=C(C)OC(N)=C(C#N)C1c1cc(OC)c2c(c1)OCO2 (configuration not stated) | i
CCc1ccc(NC(=O)c2ccnc(C(C)(C)C)c2)cc1 | i
COC(=O)Nc1ccc(S(=O)(=O)N2CCN(CCN3C(=O)C4C5C=CC(C5)C4C3=O)CC2)cc1 (configuration not stated) | i
COC(=O)c1sc(NC(=O)c2csc3c2CCCC3)nc1C | i
O=C(O)CN1CCN(Cc2ccccc2)C1=O | 0.1
CCOC(=O)C(NC(=O)CC(C)C)(Nc1cc(C)on1)C(F)(F)F (configuration not stated) | i
O=C(NN1C(=O)c2ccccc2NC1c1ccccn1)c1ccc(Br)cc1 (configuration not stated) | i
O=C1CN(C(=O)COC(=O)C2CCN(S(=O)(=O)c3ccccc3C(F)(F)F)CC2)c2ccccc2N1 | i
CC(=O)Nc1ccc(S(=O)(=O)N[C@H](C(=O)O)C(C)C)cc1 | i
CCCc1nnc(NC(=O)CC(=O)Nc2ccccc2C(=O)O)s1 | 0.4
COc1cccc(S(=O)(=O)NCc2ccc(C(=O)Nc3cccc(Cl)c3)cc2)c1 | i
COc1ccc2c(c1)CCc1c(C(=O)NC3CCCCC3)noc1-2 | 0.4
CCOC(=O)C1C(=O)CC(=O)CC1CC(C)SCC (configuration not stated) | i
CCOC(=O)CSCc1cn2cc(Cl)ccc2n1 | 0.8
CCc1cccc(CC)c1-n1c(SCn2nnc3ccccc3c2=O)nnc1-c1cccnc1 | i
O=C(CSc1nccn1-c1cccc(Cl)c1)NC1CCCC1 | i
Cc1[nH]nc(N=CC2=C(O)CC(c3ccco3)CC2=O)c1-c1ccccc1 (configuration not stated) | 1.6
Cc1cc2occ(CC(=O)Nc3nccs3)c2cc1C(C)C | i
COc1ccc(Cl)cc1C(=O)Nc1ccc(NC(=O)c2ccco2)cc1 | i
Fc1ccc(-c2nnc3ccc(N4CCCC4)nn23)cc1 | 0.5
O=C(NCc1ccccn1)c1ccc(=O)oc1 | 0.6
COCC(=O)N(Cc1cc2ccccc2[nH]c1=O)c1ccc(OC)cc1 | i
COc1cccc(-n2nc(C(=O)N3CCC4(CC3)OCCO4)c3ccccc3c2=O)c1 | i
Cc1cc2c(s1)CCCCC(=O)N2 | 0.1
CCN1CCN(C(=O)c2ccc3c(=O)n(C4CCCC4)c(=S)[nH]c3c2)CC1 | i
O=C(NCc1cccs1)C1CCN(c2ccc(S(=O)(=O)N3CCOCC3)cc2Cl)CC1 | 0.5
COc1ccc(OC)c(C2C=C(c3ccc(C)c(C)c3)Nc3nnnn32)c1 (configuration not stated) | i
O=C(NC1(C(F)(F)F)NC(=O)N(Cc2cccnc2)C1=O)c1ccccc1Cl (configuration not stated) | 0.9
O=c1nc2n(c3cc(Cl)c(S(=O)(=O)N4CCOCC4)cc13)CCCCC2 | 0.9

Some of the entries so far, field by field.
COc1cccc(-n2nc(C(=O)N3CCC4(CC3)OCCO4)c3ccccc3c2=O)c1
  H5N1 antiviral = i

Cc1cc2c(s1)CCCCC(=O)N2
  H5N1 antiviral = 0.1

CCN1CCN(C(=O)c2ccc3c(=O)n(C4CCCC4)c(=S)[nH]c3c2)CC1
  H5N1 antiviral = i

O=C(NCc1cccs1)C1CCN(c2ccc(S(=O)(=O)N3CCOCC3)cc2Cl)CC1
  H5N1 antiviral = 0.5

(cont.)
Structure | H5N1 antiviral
CC(C)C(=O)Nc1ccc(C(=O)NC2CCSC2=O)cc1 (configuration not stated) | i
CC1CCN(C(=O)CSc2nnc(Cc3cc(=O)[nH]c(=O)[nH]3)n2-c2ccc(Cl)cc2)CC1 | 0.1
CC(C)(C)n1cnc2cc(NS(=O)(=O)c3ccccc3)ccc21 | 2.9
CCn1c(=O)n(CC)c2cc(S(N)(=O)=O)c(C)cc21 | i
Cn1cc(CC(=O)N2CCN(c3ccc(Cl)cc3)CC2)c2ccccc21 | 3.1
CN(Cc1ccccc1)C(=O)COC(=O)c1ccc2c(c1)OCO2 | 0.1
COc1ccc(C(=O)NC(=S)NC(C)C)cc1Br | i
COc1ccc(OC)c(-n2c(SCC(=O)N3CCc4ccccc43)nc3c(c2=O)SCC3)c1 | 0.7
CN1C(=O)CSc2ccc(C(=O)O)cc21 | i
COC(=O)N(C)c1nc2ccccc2s1 | i
O=C(Nc1ccc(-n2nncc2-c2ccco2)cc1)c1cc2ccccc2oc1=O | i
Cc1ccc(C)c(N2CCN(C(=O)c3cc4ccccc4oc3=O)CC2)c1 | 0.5

Of the compounds above, these contain a tert-butyl group:
Structure | H5N1 antiviral
Cn1c(-c2ccc(C(C)(C)C)cc2)n[nH]c1=S | i
Cn1c(=O)c2c(SCC(N)=O)nc(CC(C)(C)C)nc2n(C)c1=O | 1.8
CCc1ccc(NC(=O)c2ccnc(C(C)(C)C)c2)cc1 | i
CC(C)(C)n1cnc2cc(NS(=O)(=O)c3ccccc3)ccc21 | 2.9

The results go on:
Structure | H5N1 antiviral
CC(=O)Nc1cc(C(=O)N2CCCC2)ccc1Sc1ccc(Cl)cc1 | i
O=C(CN1C(=O)COc2ccccc21)N(Cc1cccnc1)Cc1cccc(F)c1 | 0.9
COc1ccc(CC(=O)Nc2ccc(S(=O)(=O)NCC3CCCO3)cc2)cc1 (configuration not stated) | 1.9
NC1=NC2=C(CCCC2)C2(CCCCC2)S1 | i
Cc1ccc(CNC(=O)c2cc3c(=O)n(C)c4ccccc4c3n2C)o1 | i
CNC(=O)CSc1nnnn1CCCOC | i
Cc1n[nH]c(C)c1N1C(=O)c2cccc3cc(Br)cc(c23)C1=O | 3.6
COc1ccc(C(=O)CSc2nnc(-c3ccco3)n2CC2CCCO2)cc1 (configuration not stated) | 0.9
COC(=O)n1c(=O)oc2cc(S(=O)(=O)N3CCOCC3)ccc21 | 0.0
COCCn1c(SCCCc2ccccc2)nc2c1c(=O)[nH]c(=O)n2C | i
CCOC(=O)C(C)Oc1ccc2c(C)cc(=O)oc2c1C(C)=O (configuration not stated) | 0.3
CCc1nnc(NC(=O)c2ccc(S(=O)(=O)NC3CCCCC3)cc2)s1 | i
CCc1cc2c(cc(C(=O)O)n2C)s1 | i
O=C(Nc1ncc2c(n1)-c1ccccc1OC2)c1ccc(Cl)cc1Cl | 0.1
CC(C)n1c(SCC(=O)Nc2ccc3c(c2)OCO3)nc2c1c(=O)n(C)c(=O)n2C | 1.4
CCOC(=O)CSc1nnc(-c2ccc(OC)cc2OC)o1 | i
CCCc1ncc(C(=O)c2ccc(OC)cc2)n1C | i
COc1ccc(C(=O)NCC(=O)n2nc(C)cc2C)cc1OC | i
Clc1ccc(OCCn2c(-c3ccco3)nc3ccccc32)cc1 | i
COCCNc1ncnc2c1cnn2Cc1ccc(Cl)cc1 | i
O=C(Nc1nccs1)c1cccc(N2C(=O)c3cccc4c([N+](=O)[O-])ccc(c34)C2=O)c1 | i
O=C1Nc2ccccc2S/C1=C/Nc1cccc(Cl)c1 | 0.3
O=C1C2=C(Nc3ccccc3SC2c2ccco2)c2ccccc21 (configuration not stated) | 5.9
Cc1cc(C(F)(F)F)nn1CC(=O)NNC(=S)Nc1cccc(Cl)c1 | i
CCC(c1c(C)n(C)n(-c2ccccc2)c1=O)c1c(C)n(C)n(-c2ccccc2)c1=O | 0.7
O=C(c1cc2nc(-c3ccco3)cc(C(F)(F)F)n2n1)N1CCCCCC1 | 2.3
CC(C)(C)CC(=O)NC(=S)N1CCCCCC1 | i
CC(C)(O)C#Cc1ccc(C(=O)NCc2cccs2)s1 | 3.6
O=C(NC1CCCCCC1)c1ccc(CN2CCOCC2)cc1 | i
CCN(CC)C(=O)COc1ccc2oc(C)c(C(=O)OC)c2c1 | 1.0
